LASV entry inh: blocks Lassa virus binding to or entry into cells; Lassa virus pseudotype entry inhibition, cell reporter; control for the full effect not named in the record; Potency, µM (titrated, usually from 37.9 µM), for inactives: at the top dose activity change, negative = inhibition, most hits filed as inhibitors; 300,000 tested, 1.2% active; AID 540256; active means well fitted inhibition curve with a large enough effect; inconclusive means small, poorly fitted or top-dose-only effect, or effect the other way; inactive means flat fitted curve, though single readings scatter; tested in HEK293 cells; further: on the % scale 0 is the no-effect control and ±100 the full control effect; nearly all actives have a fitted effect of over 50% in size; luciferase read-out
SARS PLpro yeast: blocks SARS-CoV papain-like protease in a yeast assay. S. cerevisiae expressing SARS-CoV PLpro, growth rescue; control for the full effect not named in the record. Potency, µM (doses to about 32.9 µM), for the others: at the highest dose activity, positive = growth rescue. 330,000 tested, 0.19% active. AID 485353; active means well fitted rising curve with a large enough effect; inconclusive means small, poorly fitted or top-dose-only effect; inactive means no such curve, though single readings can be large or run the other way; further: 0% is about no effect; nearly all actives have a fitted effect of over 55% in size; growth read by luminescence after 48 h
RE007 growth inh: less growth of the S. pombe RE007 Vpr strain; AID 651644; S. pombe RE007 Vpr strain, BacTiter-Glo ATP luminescence, 24 h; control for the full effect not named in the record; Potency, µM (top dose mostly 92.2 µM), for the others: top-dose activity change, negative = less growth; 360,000 tested, 0.21% active; active = well fitted falling curve with a large enough effect; inconclusive = small, poorly fitted or top-dose-only effect; inactive = no such curve, though single readings can be large or run the other way;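 further: on the % scale 0 is the no-effect control and ±100 the full control effect; nearly all actives have a fitted effect of over 50% in size; the assay follows cell death caused by Vpr and the record does not say whether a fall means rescue or toxicity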
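Fission yeast strain RE007, carrying one chromosomally integrated HIV-1 vpr copy, was seeded at OD 0.01 in PMG+AL medium with 23 nL pinned compound. After 24 h at 30 °C and 99% humidity, viability was read by BacTiter-Glo luminescence.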
Cruzain inh noDet: inhibitors of Trypanosoma cruzi cruzain without detergent; P25779; purified cruzain, Z-FR-AMC fluorescence, no detergent; Potency, µM, for inactives: max response, negative = inhibition, most hits filed as inhibitors; 200,000 tested, 2.3% active; AID 1476;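 further: plate controls were enzyme without inhibitor for no effect and buffer without enzyme for full effect; nearly all actives have a fitted effect of over 40% in size; top concentration of the series not given in the record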
Target sequence (P25779 123-467 limits assumed): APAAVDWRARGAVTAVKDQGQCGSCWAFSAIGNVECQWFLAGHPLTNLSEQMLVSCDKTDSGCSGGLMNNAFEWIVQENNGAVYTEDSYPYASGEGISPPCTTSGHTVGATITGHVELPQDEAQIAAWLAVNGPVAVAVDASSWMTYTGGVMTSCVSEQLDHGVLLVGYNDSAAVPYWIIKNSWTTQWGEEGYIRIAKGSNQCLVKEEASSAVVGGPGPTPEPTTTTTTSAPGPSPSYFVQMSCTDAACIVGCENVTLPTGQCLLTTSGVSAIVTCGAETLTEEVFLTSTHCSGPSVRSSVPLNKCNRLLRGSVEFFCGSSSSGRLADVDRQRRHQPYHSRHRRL
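Purified cruzain at 1.5 nM, pre-incubated 15 min with compound at room temperature in 100 mM sodium acetate pH 5.5, 5 mM DTT, 0.00005% Triton X-100. Reaction started with 2 uM Z-FR-AMC; AMC fluorescence increase over 60 s gives rate.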
2A StopGo: lowers the luciferase signal of an FMDV 2A StopGo reporter. human cells with a luciferase reporter of 2A StopGo recoding; control for the full effect not named in the record. Potency, µM (top dose mostly 57.9 µM), for inactives: at the top dose signal change, negative = less light. 410,000 tested, 1.2% active. AID 1159524; active = well fitted falling curve with a large enough effect; inconclusive = small, poorly fitted or top-dose-only effect; inactive = no such curve, though single readings can be large or run the other way; tested in HEK293T cells; further: on the % scale 0 is the no-effect control and ±100 the full control effect; nearly all actives have a fitted effect of over 45% in size; luciferase light after 4 h
Cruzain Triton: inhibitors of Trypanosoma cruzi cruzain with detergent | Potency, µM, for inactives: max response, negative = inhibition, most hits filed as inhibitors | 200,000 tested, 0.43% active | P25779 | purified cruzain, Z-FR-AMC fluorescence, 0.01% Triton;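 further: plate controls were neutral wells for no effect and buffer without enzyme for full effect; nearly all actives have a fitted effect of over 40% in size; top concentration of the series not given in the record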
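Enzyme 1.5 nM, Z-FR-AMC 2 uM, NaOAc 100 mM pH 5.5, DTT 5 mM, Triton X-100 0.01%; 15 min RT compound preincubation; kinetic ex360/em450, 60 s delta.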
NS1 inh: inhibitors of influenza NS1 protein function; AID 2326; 270,000 tested, 0.4% active; S. cerevisiae slowed by influenza A NS1, growth recovery by OD600; Potency, µM (titrated, usually from 46.1 µM), for inactives: at the top dose activity, positive = more growth; active means well fitted rising curve with a large enough effect; inconclusive means small, poorly fitted or top-dose-only effect; inactive means no such curve, though single readings can be large or run the other way; further: nearly all actives have a fitted effect of over 50% in size
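Read-out: OD600 growth recovery of NS1-expressing budding yeast. Cells grown overnight at 30C in -URA glucose medium, washed, resuspended and diluted 1:100 in 2% galactose assay medium, pH 6.0. Same strain lacking NS1 served as positive control.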
MARV entry inh: Marburg virus entry inhibition. Marburg virus pseudotyped entry inhibition, cell reporter; control for the full effect not named in the record; about a third of the inactives were read at about 46 µM. 300,000 tested, 1.8% active. Potency, µM (titrated, usually from 37.8 µM), without a hit: top-dose activity change, negative = inhibition, most hits filed as inhibitors; active = well fitted inhibition curve with a large enough effect; inconclusive = small, poorly fitted or top-dose-only effect, or effect the other way; inactive = flat fitted curve, though single readings scatter; tested in HEK293 cells; about a fifth of its hits are not listed in these tables; further: on the % scale 0 is the no-effect control and ±100 the full control effect; luciferase read-out
Numbers without * were called inactive; u = inconclusive; x = no result given; [ ] = dose if it differs, or a comment. Unless noted, the call rests on the fitted dose curve; in most records, active means well fitted curve in the direction sought with a large enough effect; inconclusive means small, poorly fitted or top-dose-only effect, or another doubt; inactive means no such curve, though single readings can be large; an effect the other way counts as inactive or inconclusive. Potency means the concentration at half of the fitted maximal effect.

cpd	Compound	LASV entry inh	SARS PLpro yeast	RE007 growth inh	Cruzain inh noDet	2A StopGo	Cruzain Triton	NS1 inh	MARV entry inh
1	O=C(Nc1ccc(Br)cc1)Nc1nc2c(s1)CCCCCC2	2%[46.1 µM]	x	x	-3%	11%	-0.1%	x	x
2	COc1cc(CN2CC(=O)N(c3cc(Cl)ccc3C)C2=S)cc(OC)c1OC	x	-8%	2%	x	u	x	-5%	x
3	Cc1ccccc1/C=N/N1C(=O)CSC1=S	x	1%	-15%	x	-20%	x	5%	x
4	COc1ccc(/C=C/C(=O)CC(O)(c2ccccc2)C(F)(F)F)cc1 (stereo unspecified)	u	-41%	-23%	-5%	35µM*	-6.7%	-39%	u
5	CSc1nc(C(=O)N2CCCC(N3CCN(c4ccccc4C)CC3)C2)cs1 (stereo unspecified)	-20%	-1%	-3%	x	-25%	x	-11%	u
6	O=C(OCc1nnc(-c2ccccc2)o1)c1cc(=O)[nH]c2ccccc12	0%	-3%	19%	x	0%	x	x	4%[46.1 µM]
7	Cc1ccccc1C(=O)Nc1nnc(-c2ccco2)s1	4.1µM*	-3%	2%	x	u	x	-1%	1.3µM*
8	Cc1cc(Cl)c(O)c(-n2nc3ccccc3n2)c1	x	0%	-10%	x	18%	x	0%	x
9	Cc1ccccc1CC1(CO)CCCN(Cc2ccc3c(c2)OCCO3)C1 (stereo unspecified)	x	0%	2%	x	-7%	x	-3%	x
10	CCNc1nc(Cl)nc(N(NC(C)=O)C(C)C)n1	6%[46.1 µM]	0%	-13%	x	-5%	x	1%	-16%[46.1 µM]
11	CN(C)CC1CCCCC1OC(=O)c1ccc(Cl)cc1 (stereo unspecified)	10%	-2%	-6%	-4%	-19%	0.6%	4%	u
12	Cn1cc(-c2cc3n(n2)CCC(=O)N3CCCC(=O)Nc2ccc(Cl)cc2)c2ccccc21	-8%[46.1 µM]	x	x	u	-12%	-1.9%	x	x
13	O=C(Nc1nnc(-c2ccco2)o1)c1ccc(N2C(=O)CCC2=O)cc1	u	-1%	-8%	x	11%	x	x	14%[46.1 µM]
14	CC(C)n1nc(C(=O)Nc2ccccc2N2CCOCC2)c2ccccc2c1=O	u	5%	6%	-23%	u	0.4%	15%	10%
15	Cc1ccc(CNC(=O)c2nc3nc(C)cc(C)n3n2)cc1	-4%	9%	-14%	3%	0%	4.8%	4%	-22%
16	CCN(CC)CCNc1nc(-c2ccco2)c2c(c1C#N)CC(C)(C)OC2	-12%	-1%	-9%	2%	-15%	-1.0%	-3%	u
17	CCCN(CC#CC(O)(c1ccccc1)c1cccnc1)CCC (stereo unspecified)	x	0%	0%	x	2%	x	-10%	x
18	O=C(NNC(=O)c1ccccc1F)c1cccc(Cl)c1	-4%	3%	-6%	4%	65%[activator]	1.1%	-14%	u
19	O=S(=O)(c1ccccc1F)N1CCc2ccccc2C1	14%[46.1 µM]	2%	7%	x	0%	x	0%	22%[46.1 µM]
20	COc1ccc(C)cc1NC(=O)CCCN1C(=O)C2CC=CCC2C1=O (stereo unspecified)	11%	-1%	-3%	x	-26%	x	1%	4%
21	Cc1ccc(C)c(C(=O)CC2(O)C(=O)N(C)c3ccccc32)c1 (stereo unspecified)	0%	2%	-2%	-8%	x	3.8%	-12%	u
22	CCN(CC)C(=O)c1sc2c(c1C)c(=O)n(-c1ccccc1)c(=O)n2Cc1c(C)cc(C)cc1C	20%[46.1 µM]	x	x	5%	21%	1.6%	x	x
23	CCOc1nc(N(C)C)nc(-n2nnc(C(C)=O)c2C)n1	26%	3%	1%	-3%	1%	2.8%	-2%	u
24	CC(C)c1cc2cc3ccc(=O)oc3cc2o1	3%[46.1 µM]	-2%	-28%	x	14%	x	-12%	u
25	COc1cccc(N(C(=O)c2snc(C(N)=O)c2N)C(C(=O)NCC2CCCO2)c2cccs2)c1 (stereo unspecified)	3%[46.1 µM]	-2%	9%	x	9%	x	3%	u
26	COc1ccc(CC(=O)Nc2cccc(C(=O)Nc3ccccc3C(=O)O)c2)cc1OC	5%	7%	10%	-9%	-21%	-2.6%	7%	19%
27	O=C(CCc1nnc(C2(c3ccc(Cl)cc3)CCC2)o1)N1CCCC1	x	-4%	21%	x	13%	x	1%	x
28	Brc1ccc(Oc2ncc(CN3CCN(c4ccccc4)CC3)s2)cc1	u	-26%	u	-6%	-29%	-0.5%	3%	u
29	COCc1cc(C)nc(Nc2ccc(C)cc2C)c1C#N	4%	-4%	0%	-13%	7%	-1.2%	1%	-15%
30	Cc1cc(C)cc(N(CC(=O)Nc2c(C)cc(C)cc2C)S(=O)(=O)c2c(C)nn(C)c2C)c1	0%[46.1 µM]	x	x	u	-17%	-4.2%	x	x
31	Nc1cc(=O)n(Cc2ccccc2)c(=O)n1-c1ccc(F)cc1	-1%	1%	10%	x	-10%	x	5%	u
32	C=CCn1cnc2c(c1=O)c1nc3ccccc3nc1n2Cc1ccccc1	x	15%	x	12%	x	0.5%	-2%	4%
33	COc1cccc(Cl)c1NC(=O)N1CCN(c2cc(C)nc3ccccc23)CC1	u	0%	-1%	x	u	x	1%	u
34	COc1ccc(Cl)cc1NC(=O)CN1CCc2ccccc2C1	x	-6%	6%	x	-14%	x	9%	x
35	O=C(CCCN1CCOCC1)c1ccc2c(c1)OCCO2	1%	-3%	1%	1%	x	0.6%	-5%	6%
36	N#Cc1ccccc1OCC(=O)OCC(=O)NC1CCCCC1	8%	-3%	-8%	x	-5%	x	x	u
37	Cc1ccc(N(C(=O)c2csnn2)C(C(=O)NC2CCCCC2)c2cccnc2)cc1C (stereo unspecified)	-8%	-3%	0%	x	9%	x	8%	-14%[46.1 µM]
38	CCCC1=Nc2cc(C(=O)NCCN3CCCC3)ccc2Sc2ccccc21	x	-21%	3%	x	-19%	x	-4%	x
39	O=C(Cc1cc(C(=O)O)c2ccccc2n1)Nc1ccccc1	u	1%	6%	x	-15%	x	x	u
40	Cc1cc(C)c2c(CC(=O)N(Cc3ccccc3)C3CCS(=O)(=O)C3)coc2c1 (stereo unspecified)	-13%[46.1 µM]	x	x	19%	-20%	-9.9%	x	13%[46.1 µM]
41	O=C(COC(=O)/C=C/c1cccc(Cl)c1Cl)Nc1ccc2[nH]c(=O)[nH]c2c1	-2%	8%	0%	x	-7%	x	x	u
42	CC1CCC(NC(=O)C2CCN(c3cnccn3)CC2)CC1 (stereo unspecified)	2%	3%	13%	-9%	7%	-2.9%	-2%	2%
43	Cn1nc(CC(=O)NC2CCCCCC2)c2ccccc2c1=O	x	-17%	10%	0%	u	1.5%	-2%	x
44	Cc1c(N=C2SC(CC(=O)Nc3ccccc3)C(=O)N2CCN2CCOCC2)c(=O)n(-c2ccccc2)n1C (stereo unspecified)	0%	2%	-1%	x	3%	x	-3%	-3%[46.1 µM]
45	CC(=O)CS(=O)(=O)c1ccc(Oc2ccc(S(=O)(=O)CC(C)=O)cc2)cc1	4%	16%	-2%	-9%	0%	-10%	14%	5%[46.1 µM]
46	Cc1cc(-c2ccccc2)nc(Oc2cccc(C(F)(F)F)c2)c1S(C)(=O)=O	u	-2%	11%	16%	-3%	-13%	10%	u
47	COc1ccc(C)cc1NC(=O)CSc1nc2ccccc2nc1N1CC(C)OC(C)C1 (stereo unspecified)	x	-2%	-3%	x	u	x	u	x
48	COc1ccc(CNC(=O)C/C(C)=N/NC(=O)COc2ccc(Br)cc2)cc1	-13%[46.1 µM]	0%	-17%	x	-9%	x	1%	-8%[46.1 µM]
49	CSc1ccccc1NC(=O)CN(C)CC(=O)NCc1ccccc1	-16%	-4%	10%	x	-6%	x	x	-15%
50	COc1cc2c(cc1OC)C1CCN3C(=O)CCC3N1CC2 (stereo unspecified)	3%	x	-5%	x	-13%	x	x	-3%

New compounds follow:
cpd	Compound	LASV entry inh	SARS PLpro yeast	RE007 growth inh	Cruzain inh noDet	2A StopGo	Cruzain Triton	NS1 inh	MARV entry inh
51	CCOc1cc(C2c3c(oc4ccccc4c3=O)C(=O)N2c2nccs2)ccc1O (stereo unspecified)	x	1%	-17%	x	12%	x	4%	x
52	COc1ccc(C2NC(=O)c3ccccc3O2)c(OC)c1OC (stereo unspecified)	10%	-2%	-20%	4%	-2%	3.2%	-1%	0%
53	Cc1ccc(C(=O)COC(=O)CCC(=O)NC2CCCCC2)cc1C	9%	0%	-1%	u	5%	0.9%	-1%	10%
54	COc1cccc(CN2CCc3nc(Nc4ccc5c(c4)OCCO5)ncc3C2)c1OC	u	x	x	-14%	-21%	-10%	x	x
55	COCCn1c(SCC(=O)NC2CC2)nnc1-c1ccco1	15%[46.1 µM]	-1%	-8%	x	8%	x	-4%	-11%[46.1 µM]
56	Cc1nn(C)c(C)c1S(=O)(=O)N1CCc2ccccc21	2%	7%	13%	-2%	-13%	2.2%	12%	x
57	O=C(CC1C(=O)NCCN1Cc1ccc(F)cc1)NCCOc1cccnc1 (stereo unspecified)	5%	1%	2%	x	7%	x	1%	-1%[46.1 µM]
58	Cc1ccccc1NC(=O)Cc1nc(COC(=O)c2ccc(NC(N)=O)cc2)cs1	3%[46.1 µM]	1%	8%	x	-4%	x	x	-1%[46.1 µM]
59	O=C(c1cc(-n2cnnc2)ccc1Cl)N1CCN(c2nc(-c3ccccc3)cs2)CC1	u	-1%	1%	3%	u	0.4%	-42%	u
60	CCn1nc(C)c(NS(=O)(=O)c2ccccc2)c1C	0%	4%	8%	-17%	x	-0.7%	10%	13%
61	COc1cccc(NC(=O)C(=O)NCCCn2ccnc2)c1	20%	1%	6%	x	45%[activator]	x	3%	-9%[46.1 µM]
62	O=C(O)c1ccc2c(=O)n(Cc3ccccc3)c(SCc3ccc([N+](=O)[O-])cc3)nc2c1	x	0%	2%	x	-28%	x	2%	x
63	CCCN1CCN(c2ncnc3sc(C(=O)Nc4c(C)cc(C)cc4C)c(C)c23)CC1	15%[46.1 µM]	x	x	-2%	u	-5.8%	x	x
64	COC(=O)CN(n1cnnc1)S(=O)(=O)c1ccc(C)cc1	3%	1%	-2%	-1%	-18%	-1.1%	7%	3%
65	COc1ccc(Nc2ncc(C(=O)N3CCN(Cc4ccccc4)CC3)c3ccccc23)cc1	u	-9%	7%	0%	u	-0.3%	-69%	u

Screening results from PubChem.
